Compound activity (PubChem)
PAFAH1B2 inh: PAFAH1B2 enzyme inhibitors, primary screen, biochemical, fluorescence polarization, human; recombinant PAFAH1B2, FP-rhodamine activity probe; inhibition, % at 3.39 µM; 1.2% of 340,000 active; AID 492953, 2010;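 active means inhibition above the mean of all tested compounds plus 3 SD, cut at about 24% in these data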;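 further: 0% = enzyme with DMSO and 100% = wells lacking PAFAH1B2; many of its hits are not listed in these tables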
Target sequence (P68402 whole entry, looked up): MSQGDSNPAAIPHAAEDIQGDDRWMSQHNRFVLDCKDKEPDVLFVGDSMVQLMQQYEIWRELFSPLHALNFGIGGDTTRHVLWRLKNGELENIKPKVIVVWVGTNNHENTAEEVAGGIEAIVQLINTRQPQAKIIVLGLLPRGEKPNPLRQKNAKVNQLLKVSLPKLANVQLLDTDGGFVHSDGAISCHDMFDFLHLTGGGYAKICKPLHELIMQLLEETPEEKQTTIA
pPAFAH inh: pPAFAH enzyme inhibitors, primary screen, biochemical, fluorescence polarization, human; recombinant pPAFAH, FP-rhodamine probe fluorescence polarization; inhibition, % at 3.39 µM; 1.5% of 330,000 active;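 active means inhibition above the mean inhibition across the screen plus 3 SD, cut at about 25% in these data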;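 further: inhibitors block binding of the rhodamine activity-based probe so polarization drops; 0% = enzyme with DMSO and 100% = wells lacking pPAFAH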
Target sequence (Q13093 whole entry, looked up): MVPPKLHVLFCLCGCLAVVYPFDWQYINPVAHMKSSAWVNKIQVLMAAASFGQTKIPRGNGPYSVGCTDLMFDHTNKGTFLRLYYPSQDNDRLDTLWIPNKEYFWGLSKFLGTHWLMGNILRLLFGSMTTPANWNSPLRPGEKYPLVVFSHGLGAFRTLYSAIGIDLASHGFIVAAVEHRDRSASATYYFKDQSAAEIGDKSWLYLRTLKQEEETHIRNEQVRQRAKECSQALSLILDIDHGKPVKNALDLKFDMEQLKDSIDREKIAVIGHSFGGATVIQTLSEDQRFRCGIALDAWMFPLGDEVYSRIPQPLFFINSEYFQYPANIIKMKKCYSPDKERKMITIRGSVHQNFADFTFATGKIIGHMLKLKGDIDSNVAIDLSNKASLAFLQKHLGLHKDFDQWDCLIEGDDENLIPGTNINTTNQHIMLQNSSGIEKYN
Fam108B inh: mouse Fam108B serine hydrolase inhibitors, primary screen, counter-screen for RBBP9 inhibitor project, biochemical, fluorescence polarization; AID 1947, 2009; 0.33% of 300,000 active; inhibition, % at 9.51 µM; recombinant Fam108B, FP-Rh probe fluorescence polarization;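 active means inhibition above the screen mean inhibition plus 3 SD, computed separately per campaign, cut at about 18% in these data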;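 further: inhibitors lower polarization as less probe binds the enzyme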
MEX-5 binding: MEX-5 zinc finger RNA-binding disruptors – biochemical, C. elegans, fluorescence polarization, MLPCN library, primary screen; AID 1832, 2009; MEX-5/FITC-TCR2 RNA binding; hits give low values; activity score (negative = inhibition of binding), % at 10 µM; 0.38% of 300,000 active; Zinc finger protein mex-5 (Caenorhabditis elegans), Q9XUB2;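 active means inhibition past about -25% in most replicates, and total fluorescence under double the plate's negative control median, limit read from the data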;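 further: 0% = DMSO and -100% = 5 µM competing unlabeled TCR2 RNA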
PME-1 primary: PME-1 inhibitors via competitive probe labeling, primary screen, biochemical, fluorescence polarization, FP-Rh probe, HTS; 0.53% of 320,000 active; inhibition, % at 5.9 µM; Protein phosphatase methylesterase 1 (Homo sapiens), Q9Y570; recombinant PME-1;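 active means inhibition above the campaign mean of all compounds plus 3 SD, cut at about 26% in these data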;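 further: competitive labeling of PME-1 active site by serine hydrolase directed probe; 0% = PME-1 with DMSO and 100% = wells lacking PME-1 enzyme; inhibitors block probe labeling so polarization falls and inhibition rises; many of its hits are not listed in these tables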
GLD-1 RNA inh: GLD-1/TGE RNA complex disruptors, primary screen, biochemical, fluorescence polarization; inhibition, % at 5.96 µM; 0.44% of 320,000 active; purified GLD-1 + fluorescein TGE RNA;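 active means percent inhibition above a per-plate cutoff, the plate mean of test compounds plus 3 SD, cut at about 30% in these data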;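 further: 0% = DMSO wells with GLD-1 and probe and 100% = wells lacking GLD-1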
AHR activator: AHR activators, primary screen, cell-based, luminescence, luciferase reporter, human; AHR-responsive luciferase reporter cells; activation, % at 5 µM; 2.5% of 320,000 active; AID 2796, 2010; in the data active means activation above about 47%;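 further: 0% = vehicle wells and 100% = reference agonist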
Active calls of the source: *; · = not tested or not shown; & = joins results of further samples.

SMILES,pPAFAH inh,MEX-5 binding,GLD-1 RNA inh,PAFAH1B2 inh,Fam108B inh,PME-1 primary,AHR activator
COc1ccc2nc(Nc3nc(-c4cc5ccccc5oc4=O)cs3)sc2c1,2.8,0.8,2.5,2.1,0.4,7.9,56.3*
C=CCc1cc(OC)ccc1OCCOCCN1CCc2ccccc2C1,6.1,-0.3,-3.0,1.8,6.4,0.2,2.8
CC(c1ccccc1)C1CC(=O)N(C2CCCCC2)C1=O (stereo unspecified),-1.6,-2.0,1.5,11.0,0.2,-3.6,-2.5
CC(C)n1c(/C=C/[C@H](O)C[C@H](O)CC(=O)O)c(-c2ccc(F)cc2)c2ccccc21,11.3,·,1.7,7.2,·,4.1,18.1
CCc1cc2c(NCC(=O)O)ncnc2s1,4.1,1.0,9.1,-0.4,-1.5,-0.8,1.9
CN(C)c1cccc(C(=O)OCc2cc(=O)oc3cc(O)ccc23)c1,23.3,-1.8,4.3,-3.1,1.1,1.5,0.1
COc1cc(NC(=O)N2CCNC2=O)cc(C(=O)Nc2cccc(C(F)(F)F)c2)c1,-5.9,4.9,0.3,-3.8,-17.2,-25.5,7.7
O=C(Nc1nc(-c2ccc(-c3ccccc3)cc2)cs1)C1=COCCO1,-2.4,1.0,-5.0,-4.5,-6.3,-7.4,-0.4
CC(C)(C)NC(=O)[C@@H]1CN(Cc2cccnc2)CCN1C[C@@H](O)C[C@@H](Cc1ccccc1)C(=O)N[C@H]1c2ccccc2C[C@H]1O,0.6,-2.0,3.5,-0.2,3.3,-4.5,-2.0
Cc1nc(N2CCN(C(=O)c3ccco3)CC2)c2c3c(sc2n1)CC(C)CC3 (stereo unspecified),11.1,0.5,6.2,2.3,0.7,9.1,-1.1
COc1cc(NC(=O)c2cnc(N)o2)cc(C(=O)Nc2cccc(C(F)(F)F)c2)c1,-2.6,1.9,3.3,9.0,-11.0,-37.1,25.4
COc1ccc(-c2csc3nc(-c4ccc(C)cc4)oc(=O)c23)cc1OC,7.9,1.4,0.3,2.6,-0.8,10.1,-1.8
Cc1ccc(Nc2nc(N)nc(CSCCO)n2)cc1,0.9,0.9,3.6,4.1,-1.9,2.9,48.3*
Cc1nn(C)c(C)c1NC(=O)CSc1nc(C2CC2)nc2c1cnn2-c1ccccc1,4.6,2.6,3.9,-4.2,-1.9,-0.4,3.5
N#Cc1cccc(NC(=O)CCC2CCCC2)c1,9.6,-1.8,-1.0,4.0,-1.4,-4.0,9.4

Given with two lines to a compound: entries from further up.
The line under a structure holds: pPAFAH inh | MEX-5 binding | GLD-1 RNA inh | PAFAH1B2 inh | Fam108B inh | PME-1 primary | AHR activator
> Cc1nc(N2CCN(C(=O)c3ccco3)CC2)c2c3c(sc2n1)CC(C)CC3 (stereo unspecified)
 : 11.1 | 0.5 | 6.2 | 2.3 | 0.7 | 9.1 | -1.1
> COc1ccc(-c2csc3nc(-c4ccc(C)cc4)oc(=O)c23)cc1OC
 : 7.9 | 1.4 | 0.3 | 2.6 | -0.8 | 10.1 | -1.8

Further records follow.
SMILES,pPAFAH inh,MEX-5 binding,GLD-1 RNA inh,PAFAH1B2 inh,Fam108B inh,PME-1 primary,AHR activator
CC(=O)Nc1ccc(C)cc1,-2.2,·,1.1,1.0,·,3.5,-0.2
CNC(=O)COC(=O)c1cc(F)c(F)cc1Cl,2.5,-1.0,13.3,3.2,1.3,-1.7,-1.0
Cc1cc2nc(C(C)(C)C)cc(N)n2n1,4.4,1.9,-2.9,-0.3,-2.3,2.7,3.6
O=C(O)c1ccccc1C(=O)Nc1ccc(S(=O)(=O)Nc2nccs2)cc1,-3.4,·,1.6,-1.6,4.5,1.5,-1.9
CC(C)(C)NC(=O)COC(=O)c1ccc(F)cc1Cl,6.2,2.8,-8.5,3.0,-3.0,-3.8,0.3
CC12CCC(=O)C=C1CCC1C2C(=O)CC2(C)C1CCC2(O)C(=O)CO (stereo unspecified),6.4,1.7,-1.9,-1.1,-1.7,-1.3,0.1
COc1ccc(NC(=O)CC2C(=O)N(C)C(=S)N2CCc2ccccc2)cc1 (stereo unspecified),2.9,0.7,6.9,0.5,0.8,-6.2,3.8
Cc1cc(CSc2ccccc2)ccc1NC(=O)c1ccc(Cl)c([N+](=O)[O-])c1,-1.6,-1.2,6.5,6.9,25.5*,-2.3,-0.4
O=C1CC(c2ccccc2)CC(=O)C1CS(=O)(=O)c1ccccc1 (stereo unspecified),2.8,1.3,2.3,1.1,0.2,0.2,-0.4
O=[N+]([O-])c1ccc(-c2ccc(/C=N/c3c(-c4ccco4)nc4ccccn34)o2)cc1,19.2,-4.7,20.8,-0.1,-2.5,0.9,5.4
COc1ccc(/C=C/c2nc(N)nc(-c3ccccc3O)n2)cc1,-1.5,-2.3,2.1,-6.5,-1.8,1.0,59.4*
Cc1ccc(Cc2cnc(NC(=O)/C(C#N)=C/c3ccc(-c4ccc([N+](=O)[O-])cc4)o3)s2)cc1,3.0,0.8,-1.4,-0.1,-4.2,-2.0,2.2
O=S(=O)(c1ccccc1)N1CCn2c(nc3ccccc32)C1,0.7,1.3,1.4,1.2,0.2,-1.3,3.6
Cc1ccc(OCc2nnc(SCC(=O)Nc3ccc4c(c3)OCO4)n2C)cc1,5.3,0.8,2.9,4.5,1.6,8.0,12.6
CC(=O)Nc1ccccc1Sc1ccc2c3c(cccc13)C(=O)N(c1ccc(C)cc1)C2=O,-0.3,-0.6,0.2,1.0,-0.9,-4.7,2.4
Cc1[nH]c(=S)[nH]c(=O)c1Cc1ccc(OCC(C)C)cc1,1.1,1.9,4.2,2.6,-0.5,-1.3,3.4
Nc1nc(CSc2n[nH]c(-c3ccccc3)n2)nc(Nc2ccccc2)n1,-0.8,1.6,-1.4,12.2,-2.3,-9.3,3.8
Cc1cc(C)nc(Nc2ncc(O)n2-c2ccc(C)c(Cl)c2)n1,1.0,-0.3,-6.9,3.3,-0.2,4.2,57.1*
Cc1ccc(Nc2nc(N)nc(CC#N)n2)cc1,2.4,2.2,2.9,-6.3,5.3,-1.8,36.0
Cc1ccc(-c2ccc(/C=N\NC(=O)c3cc4c(ccc5ccccc54)o3)o2)cc1[N+](=O)[O-],11.2,0.6,6.1,2.3,-0.3,-0.8,3.7
OC1OC[C@@H](O)[C@H](O)[C@H]1O (stereo partly specified),1.4,0.4,10.4,·,0.2,2.6,1.0
CCc1cc2c(NCCO)ncnc2s1,1.5,-1.0,-3.5,5.8,-0.7,-8.2,3.4
C=CCc1cc(OC)ccc1OCCN(C)Cc1ccccc1,1.0,-1.3,5.2,4.8,15.8,8.3,3.6
CCOC(=O)N1CCN(C(=O)CNC2CCCCCCC2)CC1,1.3,0.7,6.7,10.8,-4.4,2.5,0.5
CCOC(=O)N1CCN(C(=S)NC2CCCC2)CC1,2.4,1.7,0.2,7.3,-2.6,-1.8,-0.1
COC(=O)CCC(=O)OC1(C)C(=O)C=C2C=C(C3CC3)N(c3ccccc3)C=C2C1=O (stereo unspecified),7.1,-4.3,8.7,1.3,0.2,3.0,-1.0
N#C/C(=C\c1ccc(-c2cccc([N+](=O)[O-])c2)o1)C(=O)Nc1nc(-c2cccs2)cs1,33.0*,2.5,-1.4,5.0,6.4,24.3,78.5*
CCCCNC(=O)N1CCN(Cc2ccc(F)cc2)CC1,2.8,-1.5,2.0,1.2,-0.1,1.3,-0.2
Nc1ccn([C@@H]2O[C@H](CO)[C@@H](O)[C@H]2O)c(=O)n1,·,·,·,2.4,·,·,·
CC1(C)C2CCC1(C)C(NC(=O)/C=C/c1ccccc1)C2 (stereo unspecified),1.6,-0.8,-1.5,3.8,-2.8,2.2,10.8
Nc1cc(N)nc(SCc2cc([N+](=O)[O-])cc3c2OCOC3)n1,10.4,3.4,7.2,-1.5,-2.5,-0.7,8.0
CCCCc1nc(Cl)c(CO)n1Cc1ccc(-c2ccccc2-c2nnn[nH]2)cc1,-3.9,-0.1,2.9,-2.6,-3.4,-2.3,-2.2
CCOc1cc(/C=C2/NC(=S)NC2=O)ccc1OCc1ccc([N+](=O)[O-])cc1,4.1,-14.0,-6.3,-0.6,3.4,2.4,-0.8
CCOC(=O)c1cc(C#N)c(Oc2cccc(C(F)(F)F)c2)nc1-c1ccccc1,2.4,-5.3,1.1,-0.3,8.2,3.6,6.6
CCCCC(CC)CN=C(N)NC(N)=NCCCCCCN=C(N)NC(N)=NCC(CC)CCCC (stereo unspecified),9.8,·,2.3,-2.6,3.0,-0.5,-0.8
CC(C(=O)O)c1ccc(-c2ccccc2)c(F)c1 (stereo unspecified),-2.5&0.1,-0.6,-0.6&6.4,-3.4&-2.8,2.2,-3.3,1.2&-0.2
O=c1cc(O)c2sc3nc(-c4cccnc4)cc(C(F)(F)F)c3c2[nH]1,11.2,-9.5,13.2,-2.6,-1.6,4.0,18.9
CC(C)c1nc(N2CCN(C(=O)c3ccco3)CC2)c2c3c(sc2n1)CCCC3,12.9,4.1,-1.8,-7.1,3.0,1.0,-0.9
CC(c1cc2ccccc2s1)N(O)C(N)=O (stereo unspecified),2.8,0.3,-2.6,·,3.0,2.6,8.1
Nc1nc(N)nc(-c2ccccc2O)n1,2.4,0.4,1.9,-2.5,-1.2,-5.8,17.6
CCOC(=O)c1c(C)[nH]c(C(=O)COC(=O)/C=C/c2ccc(OCC#N)c(OC)c2)c1C,3.7,0.9,0.0,-3.1,-4.0,-2.9,0.8
COc1ccc(Cn2c(N)c(C#N)c3nc4ccccc4nc32)cc1OC,-15.5,-9.5,-10.2,2.0,-0.6,0.2,6.5
COc1ccc(-c2cnnc(N/N=C/c3c(C)nn(-c4ccccc4)c3Cl)n2)cc1,1.8,·,0.7,-2.5,-2.8,18.4,-0.3
O=C(Cn1c2ccccc2c(=O)c2cc([N+](=O)[O-])ccc21)Nc1ccccc1Cl,-3.7,-3.3,9.9,-16.0,-35.8,-10.6,5.7
CN1C(=S)N(c2ccccc2)C(=O)/C1=C/c1cccs1,3.1,3.4,7.3,-1.8,1.5,-2.4,-3.9
CC[C@H]1CN2CCc3cc(OC)c(OC)cc3C2C[C@@H]1C[C@H]1NCCc2cc(OC)c(OC)cc21 (stereo partly specified),4.0,·,5.6,-2.8,0.0,-3.3,-11.9
CCN1C(=O)/C(=C/c2ccc(C)o2)N(C)C1=S,2.1,-0.5,8.4,2.1,5.2,3.8,-1.1
COc1cc(NC(=O)c2csc(-c3ccncc3)n2)cc(C(=O)Nc2cccc(C(F)(F)F)c2)c1,-10.3,3.9,5.1,-39.4,-61.0,-96.7,15.8

Some of the compounds tested; rates above refer to the full screens.
